Screening results (PubChem)
Mtb betalactam: beta-lactam sensitization of Mtb H37Rv; 0.27% of 330,000 active; inhibition, % at 25 µM; M. tuberculosis H37Rv growth with meropenem, percent inhibition; hits of this screen are not shown here; AID 434955;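 active means about 74% or more and at least 40 points above the plate without the antibiotic, then above 30% in a dose series; inconclusive means first-round hits that could not be retested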;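 further: growth measured after seven days incubation then overnight dye step; 0% = bacteria only wells and 100% = bacteria with antibiotic; twin plates without the antibiotic show which effects depend on it; some results filed as inactive read as strong as hits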
Arbovirus inh: antivirals against arbovirus infection; arbovirus infection cell-based antiviral screen; inhibition, % at 10 µM; 0.37% of 200,000 active; AID 1251;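 active means inhibition from about 30%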;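 further: bluetongue infection of BSR cells; cell survival read as ATP light after 72 h; 0% = infected wells without compound and 100% = uninfected wells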
RecA intein inh: blocks M. tuberculosis RecA intein splicing; P9WHJ3; cell-free RecA intein splicing, fluorescence; inhibition, %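 (about 9 µM by stock and volumes)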; 0.75% of 290,000 active; in the data active means inhibition above about 30%; inconclusive means no clear call, values can overlap the other calls;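 further: 0% = vehicle wells and 100% = reference inhibitor control wells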
Target sequence (P9WHJ3 whole entry, looked up): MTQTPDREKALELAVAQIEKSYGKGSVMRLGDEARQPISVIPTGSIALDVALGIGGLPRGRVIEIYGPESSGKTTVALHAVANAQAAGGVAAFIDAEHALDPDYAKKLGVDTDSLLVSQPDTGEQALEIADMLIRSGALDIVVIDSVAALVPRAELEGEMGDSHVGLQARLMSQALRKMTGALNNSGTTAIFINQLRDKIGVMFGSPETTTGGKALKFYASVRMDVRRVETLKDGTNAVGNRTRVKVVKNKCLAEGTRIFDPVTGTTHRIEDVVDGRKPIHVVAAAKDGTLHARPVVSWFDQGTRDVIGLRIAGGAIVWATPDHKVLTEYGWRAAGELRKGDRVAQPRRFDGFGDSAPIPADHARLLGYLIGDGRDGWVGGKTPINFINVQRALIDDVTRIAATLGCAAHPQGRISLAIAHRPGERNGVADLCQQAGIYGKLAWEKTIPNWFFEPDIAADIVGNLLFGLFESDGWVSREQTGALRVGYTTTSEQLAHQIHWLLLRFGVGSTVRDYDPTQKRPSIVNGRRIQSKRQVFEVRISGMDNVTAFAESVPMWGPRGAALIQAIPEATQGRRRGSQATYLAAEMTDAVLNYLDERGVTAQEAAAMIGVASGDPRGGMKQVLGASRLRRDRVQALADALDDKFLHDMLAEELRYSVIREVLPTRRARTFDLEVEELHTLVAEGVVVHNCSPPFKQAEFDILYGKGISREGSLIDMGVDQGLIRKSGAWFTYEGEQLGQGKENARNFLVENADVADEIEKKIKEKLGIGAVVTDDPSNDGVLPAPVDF
YopH inh: inhibitors of Yersinia enterocolitica YopH tyrosine phosphatase; fluorescence Ex485/Em525; inhibition, %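 (about 10 µM by stock and volumes)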; 0.16% of 140,000 active; AID 898;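 active means inhibition of 50% or more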;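 further: controls were vehicle for no effect and minimum signal wells for full effect; inactives centre near -20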
Mtb growth: M. tuberculosis H37Rv growth inhibitors, H37Rv strain (AID 1626); M. tuberculosis H37Rv growth inhibition; higher % means a stronger effect; one-dose inhibition, % at 10 µM; IC50 in µM for titrated hits; 0.95% of 220,000 active;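 active means confirmed in a dose series; inconclusive means inhibition above 80% but not taken into the dose series; inactive means below 80% or under 30% at every dose of the series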;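 further: bacteria incubated seven days before Alamar blue readout; 0% = bacteria only wells and 100% = bacteria with antibiotic wells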
Arbovirus inh repeat: further read-out of Arbovirus inh, marked with its call; inhibition, %; measured here: 10K subset replicate screen; many hits read low in the repeat;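 first of two repeat runs on a subset; 0% = infected and 100% = uninfected wells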
Active calls of the source: *; u = inconclusive; x = no result given. Not all compounds are listed; rates above refer to the full screens.

SMILES	Mtb betalactam	Arbovirus inh	RecA intein inh	YopH inh	Mtb growth	others
c1ccc(OCCSc2nnnn2-c2ccccc2)cc1	-3	-9	2.8	-21	21%
Cc1onc(-c2c(Cl)cccc2Cl)c1C(=O)NCc1cccs1	-1	4	-1.4	3	8%
Cc1ccc(NC(=O)C2CCCN2C(=O)OCc2ccccc2)c(C)c1 (centres undefined)	-12	x	0.5	x	x
CC#CCCCC(=O)Nc1ccc(C(=O)O)cc1	-8	2	-0.9	-58	-1%
O=C(NNC(=O)c1ccccc1OCc1ccccc1)c1ccccc1O	7	x	1.7	x	x
O=C(Oc1cccc(/C=N/Nc2nc(Nc3ccccc3)nc(N3CCOCC3)n2)c1)c1ccco1	81	-9	20	-29	36%
CCc1nnc(NC(=O)CSc2nnc(CNC(=O)c3ccccc3F)n2C)s1	5	x	-1.4	x	x
O=C(c1[nH]ncc1-c1cccc(Br)c1)C1CO1 (centres undefined)	4	x	29	x	-2%
O=C(CSC1=NS(=O)(=O)c2ccccc2N1)N1CCCCC1	-3	x	-1.5	x	x
COc1ccc(C2CC(c3c(-c4ccccc4)c4cc(Cl)ccc4[nH]c3=O)=NN2S(C)(=O)=O)cc1 (centres undefined)	79	2	-3.7	-8	6%
Cc1ccc(C)c(S(=O)(=O)N2CCCCC2CCNC(=O)C(=O)NCc2ccco2)c1 (centres undefined)	1	x	-0.6	x	x
OCc1cn(-c2ccccc2)nc1-c1ccc(-c2nn(-c3ccccc3)cc2CO)cc1	23	3	-1.0	2	-2%	Arbovirus inh repeat=-5
CN(C)C(=O)c1ccc(NC(=O)COC(=O)c2cc(S(=O)(=O)N(C)C)ccc2N2CCCC2)cc1	1	x	1.9	x	x
CCc1nnc(NC(=O)[C@@H](NC(=O)c2cccc(S(=O)(=O)N(CC)CC)c2)C(C)C)s1	-7	4	-0.7	-32	0%
O=[N+]([O-])c1ccc(CSc2ccc(-c3ccccn3)nn2)cc1	-7	-18	-3.1	x	6%
Cc1ccc(COC(=O)c2cc(S(=O)(=O)N3CCCCC3)ccc2N2CCOCC2)cc1	-1	x	0.2	x	x
CCS(=O)(=O)N1CCC(C(=O)NCCC2=CCCCC2)CC1	4	1	-1.5	-48	-14%
CCn1cc(C(=O)O)c(=O)c2cc(S(=O)(=O)N(C)C)ccc21	-5	2	1.4	-6	-9%
CCCOc1ccc(C2/C(=C(/O)c3ccccc3)C(=O)C(=O)N2CCCN(C)C)cc1OC (centres undefined)	-6	x	x	0	x
COC(=O)CCC(=O)OC1(C)C(=O)C2=CN(Cc3ccccc3)C(c3ccc(OC)cc3)=CC2=C(Br)C1=O (centres undefined)	13	x	-10	x	2%
COc1ccc2nc(C)c3cc(C)oc3c2c1	1	2	x	-30	u
c1ccc(-c2nnc(C3CC(c4cccnc4)=NO3)o2)cc1 (centres undefined)	-4	x	1.6	x	-10%
COc1ccc(C(=O)NC(=S)Nc2ccc(N3CCCC3)cc2)cc1	6	3	-0.4	x	3%
Cc1ccc(SCCCCN2C(=O)NC(C)(C)C2=O)cc1	-1	-5	-4.2	-15	7%
O=C(CSc1nc(-c2ccc(F)cc2)cc(C(F)(F)F)n1)NCc1cccs1	-1	2	0.0	-14	3%
CC(=O)N1CC=CC1(CC(C)C)C(=O)NCCc1c[nH]c2ccccc12 (centres undefined)	1	1	0.0	-28	-13%
CCCn1c(/C=C/c2cc[n+](C)cc2)nc2ccccc21	-10	x	-14	x	x
CCC(C)(C(=O)NC1CCCC1)N(C(=O)CNC(C)=O)c1ccccc1 (centres undefined)	-5	2	0.8	-36	-7%	Arbovirus inh repeat=7
O=C(C1CCN(c2ncnc3c2sc2cccc(F)c23)CC1)N1CCOCC1	-7	-2	-1.0	-46	8%	Arbovirus inh repeat=3
O=C(COC(=O)c1ccc2ccccc2c1O)NCC(F)(F)F	-8	x	-3.6	x	-10%

Among those listed so far, these have a carbonyl joined to an NH by a bond outside any ring.
SMILES	Mtb betalactam	Arbovirus inh	RecA intein inh	YopH inh	Mtb growth	others
Cc1onc(-c2c(Cl)cccc2Cl)c1C(=O)NCc1cccs1	-1	4	-1.4	3	8%
Cc1ccc(NC(=O)C2CCCN2C(=O)OCc2ccccc2)c(C)c1 (centres undefined)	-12	x	0.5	x	x
CC#CCCCC(=O)Nc1ccc(C(=O)O)cc1	-8	2	-0.9	-58	-1%
O=C(NNC(=O)c1ccccc1OCc1ccccc1)c1ccccc1O	7	x	1.7	x	x
CCc1nnc(NC(=O)CSc2nnc(CNC(=O)c3ccccc3F)n2C)s1	5	x	-1.4	x	x
Cc1ccc(C)c(S(=O)(=O)N2CCCCC2CCNC(=O)C(=O)NCc2ccco2)c1 (centres undefined)	1	x	-0.6	x	x
CN(C)C(=O)c1ccc(NC(=O)COC(=O)c2cc(S(=O)(=O)N(C)C)ccc2N2CCCC2)cc1	1	x	1.9	x	x
CCc1nnc(NC(=O)[C@@H](NC(=O)c2cccc(S(=O)(=O)N(CC)CC)c2)C(C)C)s1	-7	4	-0.7	-32	0%
CCS(=O)(=O)N1CCC(C(=O)NCCC2=CCCCC2)CC1	4	1	-1.5	-48	-14%
COc1ccc(C(=O)NC(=S)Nc2ccc(N3CCCC3)cc2)cc1	6	3	-0.4	x	3%
O=C(CSc1nc(-c2ccc(F)cc2)cc(C(F)(F)F)n1)NCc1cccs1	-1	2	0.0	-14	3%
CC(=O)N1CC=CC1(CC(C)C)C(=O)NCCc1c[nH]c2ccccc12 (centres undefined)	1	1	0.0	-28	-13%
CCC(C)(C(=O)NC1CCCC1)N(C(=O)CNC(C)=O)c1ccccc1 (centres undefined)	-5	2	0.8	-36	-7%	Arbovirus inh repeat=7
O=C(COC(=O)c1ccc2ccccc2c1O)NCC(F)(F)F	-8	x	-3.6	x	-10%

More compounds follow.
SMILES	Mtb betalactam	Arbovirus inh	RecA intein inh	YopH inh	Mtb growth	others
Cc1[nH]n(-c2ccc([N+](=O)[O-])cc2)c(=O)c1C=NCCN1CCN(C(=O)c2ccc(Br)cc2)CC1	-1	-3	x	-9	-9%
COc1ccc([N+](=O)[O-])cc1NC(=O)C1CCCNC1=O (centres undefined)	u	x	-1.9	x	x
O=C(Nc1nc2ccccc2n1CCN1CCOCC1)c1ccc(Cn2cc([N+](=O)[O-])cn2)o1	-9	x	1.9	x	x
CC(=O)Nc1ccc(/C=C(\C#N)C(=O)NC2CCCCC2)cc1	1	5	1.7	x	3%
Cn1c2ccccc2c(=O)c2c(=O)n(-c3ccc(F)cc3)c(-c3cccs3)nc21	1	x	-1.0	x	20%
COc1cc(C=O)ccc1Oc1nnnn1-c1ccccc1	-6	x	2.1	x	2%
COc1ccc(Nc2sc(C(=O)c3ccc(Cl)cc3)c(N)c2C(=O)Nc2ccccc2OC)cc1	10	24	0.0	-32	13%
CCN(CC)c1ccc(NC(=O)c2cnccn2)cc1S(=O)(=O)Nc1ccc(OC)cc1	7	-18	2.8	-32	-7%
Nc1ncnc(N(c2ccccc2)C2CCCCC2)c1[N+](=O)[O-]	-6	4	-0.6	-43	-4%
CC(NC(=O)COC(=O)CCc1nc(=O)c2ccccc2n1C)c1ccccc1 (centres undefined)	-4	7	0.8	x	0%
Cn1c(CCNC(=O)C2CCCCC2)nc2cc([N+](=O)[O-])ccc21	-6	4	1.8	x	-3%
CSCCC(NC(=O)c1ccco1)c1nc2ccccc2[nH]1 (centres undefined)	4	x	3.3	x	x
CCc1ccc(NC(=S)N(CCN(C)C)C(C)c2ccncc2)cc1 (centres undefined)	3	10	-0.5	x	-5%
Cc1ccc2c(c1)cc1c(=O)n(CC(=O)N3CCC4(CC3)OCCO4)nc(C)n12	u	x	0.5	x	x
N/C(=N\OC(=O)c1ccccc1[N+](=O)[O-])c1cccnc1	4	-6	-0.6	-23	9%
COc1ccc(NC(=O)CCS(=O)(=O)c2ccc3c(c2)CCCN3C(C)=O)cc1	-1	-9	-4.2	-36	-4%
O=C(Nc1ccc(Cl)c(C(=O)N2CCOCC2)c1)c1ccccc1	-1	x	0.8	x	x
Cc1ccccc1C(=O)N=c1sccn1C	-6	1	2.0	-5	-7%
Cc1cc(C(=O)Cn2c(CO)nc3ccccc32)c(C)n1C	2	x	0.9	x	x
COc1ccccc1N=Nc1c(C)[nH]n(-c2ccccc2)c1=O	8	x	1.3	x	x
CC(C)c1ccc(S(=O)(=O)N2CCN(C(=O)C3CCN(C(=O)c4ccc(F)cc4)CC3)CC2)cc1	-11	x	1.7	x	x
Cc1cccc(C(=O)NCCCNC(=O)c2ccco2)c1	-5	x	-2.1	x	x
Cc1ccc2[nH]c3nc(SCCN4CCOCC4)nnc3c2c1	-10	0	-42	-25	-7%
Cc1ccc(C(=O)Nc2nnc(CC(=O)N/N=C/c3ccc(O)c(O)c3)s2)cc1	7	x	-5.2	x	x
COc1ccc(NC(=O)CN(C)CC(=O)Nc2cccc(S(=O)(=O)N(C)c3ccccc3)c2)cc1	-1	4	0.8	x	5%
COc1ccc(/C=N/NC(=O)CC(=O)NCCc2ccccc2)cc1OC	2	-2	-1.3	4	-17%
CN1CCN(CCC(=O)Nc2ccccc2Cl)CC1	-5	-3	0.2	-35	-7%
CC(=O)N(C(C)=O)S(=O)(=O)c1ccc(N=NN2CCCCC2)cc1	-8	-4	2.5	-25	-2%
CCOc1ncccc1C(=O)Nc1nnc(C2CC2)s1	4	5	0.2	x	2%
Cc1occc1C(=O)Nc1sccc1C(N)=O	-11	x	-1.4	x	x
COC(=O)c1cc2ccsc2n1Cc1ccccc1F	5	-6	3.2	-33	-1%
Cn1c(CCCOc2ccc(Cl)cc2Cl)nnc1SCC(=O)Nc1nccs1	-4	7	-1.2	-18	-14%
COc1ccc(C=O)cc1Cn1ccnc1	0	6	x	x	0%
Nc1c(C(=O)NCc2cccs2)nnn1CC(=O)Nc1cccc(Cl)c1	1	1	-1.1	x	3%
COc1ccc(-c2nc3ccccc3c(=O)o2)cc1OC	75	11	3.3	-21	12%
CCC[N+]1(CC#CC2(O)CCCCC2)CCOCC1	1	5	-4.0	x	2%
Cc1cc2cccc(C)c2nc1SCC(=O)NNC(=O)c1ccco1	-2	2	-2.1	x	2%
CSc1ccccc1NC(=S)Nc1ccccc1C(F)(F)F	0	8	1.9	1	3%
Cc1ccc(C(CCN(Cc2ccccc2)C(=O)c2ccco2)c2ccco2)cc1 (centres undefined)	4	4	27	-4	2%
CC(C)Oc1ccc(C(=O)N/N=C/c2ccc(-c3ccc(S(=O)(=O)Nc4ncccn4)cc3)o2)cc1	94	-1	-0.8	-12	-4%
COc1ccc(/C=N/NC(=O)c2ccc(COc3cccc4cccnc34)cc2)cc1O	-3	x	3.9	x	-14%
COC(=O)C1C2C=CC3(CN(C(C)C)C(=O)C13)O2 (centres undefined)	2	1	-1.3	x	-9%	Arbovirus inh repeat=1
N#Cc1ccc(OCC(=O)NCC2(N3CCCCC3)CCCCC2)cc1	-5	-2	-3.0	x	-4%
COc1cccc(NC2=CC(=O)CC(C)(C)C2)c1	2	-3	0.0	-26	-3%	Arbovirus inh repeat=4
Cc1nnsc1C(=O)NNc1ccc(C(C)(C)C)cc1	-3	x	0.4	x	-9%
Cc1cc(C)c(C#N)c(SCC(=O)C(C)(C)C)n1	13	2	-1.4	11	-2%
Cc1ccc(C(=O)NN2C(=O)c3ccc(S(=O)(=O)c4ccc(C(=O)O)cc4)cc3C2=O)cc1	1	4	1.0	x	-1%
Cc1cc(OCCn2ccnc2)cc(C)c1Cl	77	x	3.4	x	x
O=Cc1c(N2CCN(CCO)CC2)nc2ccccn2c1=O	4	x	-63	x	x
COc1cc(C(=O)Nc2ccc(C(=O)c3cccs3)cc2)cc(OC)c1OC	75	x	-0.5	x	x
CCCOC(=O)C1[C@H]2C(=O)N(Cc3ccco3)C[C@]23C=C[C@H]1O3 (some centres undefined)	0	3	-0.6	-14	-4%
Cc1c(C)n(C(=O)CN2CCC(C)CC2)c2ccccc12	-3	4	2.8	-98	-5%
Cc1ccc(NC(=O)CSCC(=O)Nc2sccc2C#N)cc1	-16	x	0.0	x	x
COCCSc1ccccc1C(=O)N1CCN(c2ccccc2OC)CC1	0	-1	3.0	x	3%
COc1cccc(NC(=O)CN2CCC(C)CC2)c1	7	1	-1.5	-12	-5%
COc1ccccc1/C=C1\SC(=S)N(CCC(=O)NNC(=O)c2ccccc2O)C1=O	5	x	2.1	x	x
Cc1cccc(-c2nnc(SCC#N)n2Cc2ccccc2)c1	-8	3	2.5	-32	-6%
Cc1cc(CCN2CCC(=O)NC2=O)ccc1OC(C)C	0	-2	-0.3	-35	5%
Cc1c(Br)c([N+](=O)[O-])nn1CC(=O)NCc1cccs1	-2	15	-0.7	-38	-2%
CN(C)c1ccc(C(=O)Nc2nnc(-c3ccc(Cl)cc3)o2)cc1	92	-22	-5.0	-31	0.9µM*	Arbovirus inh repeat=-21
